gsp agonist: gsp mutant agonism. gsp mutant cells, cAMP HTRF, 30 min; control for the full effect not named in the record. Potency, µM (doses to about 76.9 µM), for inactives: top-dose activation (cAMP increase), actives largely listed as activators. actives 0.13% (n = 340,000). AID 624287; active = well fitted activation curve with a large enough effect; inconclusive = small, poorly fitted or top-dose-only effect, or another doubt; inactive = no such curve, though single readings can be large or run the other way; cell line not stated here;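 also: phosphodiesterase inhibitor Ro 20-1724 added with compounds to block cAMP breakdown; potency is read from the fitted curve at half-maximal effect; nearly all actives have a fitted effect of over 60% in size; about a fifth of the inactives were tested at one dose only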
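Cells stably selected in G418 were plated at 2000/well, grown 16-24 hr, then given compounds in DMSO with the PDE inhibitor […] (300 uM solution added) for 30 min at 37C; cAMP was read by HTRF.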
ClpP mod: qHTS Assay for Activators of ClpP; actives 1.9% (n = 340,000); Potency, µM (doses to about 57.5 µM), without a hit: top-dose activity change, negative = active; ATP-dependent Clp protease proteolytic subunit (Bacillus subtilis (strain 168)), P80244; AID 651965, 2013; purified B. subtilis ClpP, FRET peptide cleavage, 20 min; active = well fitted falling curve with a large enough effect; inconclusive = small, poorly fitted or top-dose-only effect; inactive = no such curve, though single readings can be large or run the other way; also: potency is read from the fitted curve at half-maximal effect; the source files actives as falling curves though it sought activators and does not explain the sign; nearly all actives have a fitted effect of over 65% in size; many hits overshoot -100%
Target sequence (P80244 whole entry, looked up): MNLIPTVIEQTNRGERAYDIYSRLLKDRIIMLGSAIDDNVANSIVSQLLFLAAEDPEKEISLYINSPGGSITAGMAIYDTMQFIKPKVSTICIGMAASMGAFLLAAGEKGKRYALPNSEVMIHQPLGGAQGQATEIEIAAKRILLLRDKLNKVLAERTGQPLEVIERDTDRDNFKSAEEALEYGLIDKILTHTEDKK
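ClpP 10 microg/mL final, pH 8 Tris/KCl buffer with BSA, glycerol, Tween-20; compound pinned in; FRET-FV substrate; RT 20 min; Ex320/Em430; ΔFRET vs ADEP 5.8 microM, DMSO, no enzyme.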
gsp antagonist: antagonizes gsp, the McCune-Albright syndrome mutation | gsp-mutant cells, cAMP HTRF, 30 min; control for the full effect not named in the record | actives 0.4% (n = 340,000) | AID 624288 | Potency, µM (titrated, usually from 76.9 µM), for the others: at the top dose activity change, negative = inhibition, usual class: inhibitors; active = falling curve of any shape with a large fitted effect; inconclusive = falling curve, mostly with a smaller effect; inactive = flat or rising curve; cell line not stated here;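 also: intracellular cAMP measured with PDE inhibitor Ro 20-1724 present during compound exposure; potency is read from the fitted curve at half-maximal effect; % is scaled to controls: 0 for no effect and ±100 for the full control effect; nearly all actives have a fitted effect of over 65% in size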
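Cells, 2000/well, grown 16–24 h in DMEM 10% FBS with 0.5 mg/ml G418, then compounds plus […] (300 uM addition stock), 30 min at 37C. cAMP read by HTRF (cAMP-d2 and anti-cAMP antibody-K in lysis buffer) after 30 min RT.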
TRPML1 agonist: activates the human TRPML1 channel; Q9GZU1; TRPML1-expressing cells, Ca2+ dye fluorescence, FDSS; host cell line not named in the record; reference of the full effect not given here; activation, % (test concentration not listed); actives 0.12% (n = 410,000); AID 624414; in the data active = activation above about 50%; inconclusive = about 30% to 50%; inactive = below about 30%; also: 0% is about no effect; the text of the record puts the active cut at 80%
Target sequence (Q9GZU1 whole entry, looked up): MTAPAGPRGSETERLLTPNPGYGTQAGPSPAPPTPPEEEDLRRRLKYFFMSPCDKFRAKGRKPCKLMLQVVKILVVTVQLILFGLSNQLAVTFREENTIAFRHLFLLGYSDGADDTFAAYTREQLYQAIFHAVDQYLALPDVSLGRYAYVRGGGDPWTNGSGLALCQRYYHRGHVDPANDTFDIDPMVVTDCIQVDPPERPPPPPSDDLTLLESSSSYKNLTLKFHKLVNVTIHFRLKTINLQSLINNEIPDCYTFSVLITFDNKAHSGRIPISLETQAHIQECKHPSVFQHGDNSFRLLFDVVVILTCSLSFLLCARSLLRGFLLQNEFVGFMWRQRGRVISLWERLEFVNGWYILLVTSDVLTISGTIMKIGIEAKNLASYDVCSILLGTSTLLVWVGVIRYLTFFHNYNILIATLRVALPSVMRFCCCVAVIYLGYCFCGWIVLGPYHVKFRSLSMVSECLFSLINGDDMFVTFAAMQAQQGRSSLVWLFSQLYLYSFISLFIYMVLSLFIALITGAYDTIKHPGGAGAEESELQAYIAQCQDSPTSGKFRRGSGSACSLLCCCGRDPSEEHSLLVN
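Tetracycline-induced TRPML1-DL cells are seeded and incubated overnight before loading with a no-wash Ca2+ dye and quencher. Agonist activity is taken from the 110 s fluorescence read following compound pin-transfer on an FDSS, before EC80 54-4 challenge.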
Menin MLL FP FL: menin-MLL binding inhibition, fluorescein peptide. Fluorescence polarization, fluorescein-MLL peptide displacement from menin. FP activity change, % at 61.4 µM. 290,000 tested, under 10 active. AID 1766; inconclusive = falling polarisation curve, or a change in total fluorescence; inactive = total fluorescence flat and polarisation flat or rising; no compound was filed as active; the % refers to the polarisation; negative = inhibition;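 also: % of control where 0% means no effect; inhibitors lower the polarisation; unlabelled MLL peptide was the positive control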
TRPML1 inh: human mucolipin-1 channel inhibition; actives 0.02% (n = 390,000); TRPML1-inducible cells, Ca2+ dye fluorescence, FDSS; hits give low values; inhibition of EC80 agonist-evoked calcium signal; activity change, negative = inhibition, % (no concentration beside the values); Q9GZU1; AID 624415; in the data active means activity change below about -50%; inconclusive means about -30% to -50%; inactive means above about -30%;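 also: stimulus is agonist 54-4 at its EC80 concentration; % is scaled to controls: 0 for no effect and ±100 for the full control effect; compound concentration not given in the record; the text of the record puts the active cut at -80%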
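Calcium fluorescence in TRPML1-DL cells induced overnight with Tet: a 110 s read after compound pin addition, then a 110 s antagonist read after challenge with 54-4 at 4 uM final (EC80).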
Active calls of the source: *; ? = inconclusive; . = not tested or not shown; [ ] = remark or other dose.

SMILES	gsp agonist	ClpP mod	gsp antagonist	TRPML1 agonist	Menin MLL FP FL	TRPML1 inh
OC(COc1ccccc1)CN1CCOCC1 (stereo not drawn)	-29%	-0.6%	2%	-0.3	-0.9	-4
COC(=O)C1CSC(c2ccc(Cl)cc2)N1C(=O)c1ccccc1 (stereo not drawn)	-66%[inhibitor]	-0.3%	-10%	2.0	-5.3	-10
Cc1nc[nH]c(=O)c1Br	-2%[15.4 µM]	-3.1%	12%	-0.5	-3.5	-15
COc1cccc(C(O)CC(N)=O)c1 (stereo not drawn)	-4%	-1.7%	3%[15.4 µM]	0.2	-5.4	-13
O=C1CC(c2cccc([N+](=O)[O-])c2)c2cc3c(cc2N1)CCC3 (stereo not drawn)	-25%	0.8%	-7%	.	0.6	.
O=C1CSC(=Nc2cccc([N+](=O)[O-])c2)N1	9%	1.2%	2%	0.7	1.7	42
COc1ccc(NC(=O)CN(C)S(=O)(=O)c2ccc3[nH]c4c(c3c2)CCCC4)cc1OC	.	-1.9%	.	1.5	.	-14
Cc1ccc(-c2ccc3c(c2)O[C@H](CN(C)C(=O)Nc2ccc(C(F)(F)F)cc2)[C@H](C)CN([C@H](C)CO)S3(=O)=O)cc1	.	-0.6%	.	0.3	.	-19
Cc1nc(-c2ccc(Cl)cc2)sc1CCNC(=O)c1ccco1	.	3.8%	.	-0.1	.	1
COc1ccc(-c2cc(=O)oc3cc(OCC(=O)N[C@@H](Cc4c[nH]c5ccccc45)C(=O)O)ccc23)cc1	.	-1.1%	-5%	.	-3.9	.
CCCS(=O)(=O)NC(=O)C1(C)CCCN(C(=O)c2ccc(F)c(Cl)c2)C1 (stereo not drawn)	.	-2.6%	.	-0.4	.	-4
Cc1ccc(-c2c(C(=O)N/N=C/c3ccoc3)nnn2-c2nonc2N)cc1	-18%	-2.4%	-1%	0.2	0.3	1
O=C(CSc1nnc(NC(=O)C2CCC2)s1)Nc1ccc(N2CCOCC2)cc1	-49%[inhibitor]	0.8%	-6%	1.3	-0.5	-10
CSc1nnc(-c2ccccc2N=Cc2c(C)[nH]n(-c3ccccc3)c2=O)c(=O)[nH]1	-1%	-13%	?	-1.4	1.3	10
COc1ccc(C(=O)OCC(=O)Nc2cc(C)on2)c(OC)c1OC	-23%[15.4 µM]	.	15%	-0.8	2.6	-1
O=C(CSc1nnc(-c2ccc(Cl)cc2)n1-c1ccccc1)N/N=C/c1ccccc1C(=O)O	-21%	-0.1%	1%	1.6	-0.1	-14
COc1ccc(CNC(=O)CCSc2nc(-c3ccc4c(c3)OCO4)cc(C(F)(F)F)n2)cc1	8%	7.9µM*	15%	1.2	6.7	-2
COc1ccc(NC(=S)NCCCCCC(=O)C[N+](=O)[O-])cc1	-39%[inhibitor]	.	-19%	0.4	2.2	7
Nc1ccccc1-c1nnn(CC(=O)Nc2ccc3c(c2)OCCO3)n1	17%	-0.1%	7%	0.1	.	-19
CC1CCc2sc(C(=O)NCC(c3ccco3)N3CCCCC3)cc2C1 (stereo not drawn)	-2%	0.4%	-14%	0.2	.	-4
Cc1nn(-c2nnc(C)c(=O)[nH]2)c(C)c1SCC(=O)Nc1ccc(F)cc1	10%	-1.8%	9%	-0.5	-0.5	8
CCSc1nnc(NC(=O)C2C3C=CC(C3)C2C(=O)O)s1 (stereo not drawn)	-25%	-3.3%	-7%	1.1	0.2	7
C=CCn1cnc2scc(-c3ccc(OC)cc3)c2c1=O	0%	.	2%	1.0	1.7	13
CCOc1ccc(NC(=O)c2ccccc2OCC(=O)c2ccc(C)cc2)cc1	-1%	-0.2%	1%	0.7	4.9	-2
Cn1c(C(=O)OCC(=O)NCc2ccc(F)cc2)cc2occc21	-29%	0.7%	-3%	1.2	.	10

Following part:
SMILES	gsp agonist	ClpP mod	gsp antagonist	TRPML1 agonist	Menin MLL FP FL	TRPML1 inh
CCOC(=O)N1CCN(c2ncnc3nc[nH]c23)CC1	20µM*	0.4%	-1%	-1.1	1.8	11
CN(CCNC(=O)c1ccc(CS(=O)(=O)c2ccc(Br)cc2)o1)CCc1ccccc1	12%	0.8%	4%	0.2	.	-7
O=C(Cn1c(=O)nc(-c2ccccc2)c2cc(Cl)ccc21)N1CCN(c2ccccc2F)CC1	.	-2.6%	.	0.7	.	12
Cc1cccc(-c2ocnc2C(=O)Nc2ncc(C)s2)c1	5%	-1.3%	.	-0.5	.	-7
COc1cccc(C(=O)N(Cc2nc(-c3cccc(C)c3)no2)C(C)C)c1OC	-23%	-11%	-27%	2.9	-0.5	6
COc1ccc2ccccc2c1CNCc1ccccn1	-48%[inhibitor]	0.0%	-3%	-0.4	4.8	-11
CC(=O)Nc1ccccc1-c1nc2ccccc2n(Cc2cccc(Br)c2)c1=O	.	-3.2%	.	0.3	.	19
CC1=C(C#N)C(NC(=O)C(C)(C)C)(C(F)(F)F)C(=O)N1 (stereo not drawn)	1%	-1.0%	10%	-0.2	5.1	-18
COc1ccc(S(=O)(=O)NCCc2nnc3ccc(SCC(=O)Nc4ccccc4C)nn23)cc1	.	-5.9%	.	1.1	.	-7
O=C(O)/C=C\C(=O)Nc1ccccc1C#Cc1ccccc1	3%	-18%	-1%	1.1	3.3	2
CC(=O)N1c2ccccc2C(C)CC12CCCCC2 (stereo not drawn)	?	0.9%	?	-0.3	2.2	6
CC(C)(C)c1ccc(-c2c(C#N)c(N)nc3c2CCCC3)s1	24%	32µM*	1%	3.4	1.9	-11
O=C(NCc1cccc(C(F)(F)F)c1)C1CC2Cn3c(nc4ccccc43)C2N1Cc1ccccc1 (stereo not drawn)	28%	0.8%	-19%	-0.7	.	-20
Cc1ccccc1Nc1nc(N)nc(CSCc2c(C)noc2C)n1	-3%	-1.3%	-17%	0.8	4.1	15
O=C(NNc1c2ccccc2nc2ccccc12)c1ccc(O)cc1O	9%	-18%	-6%	0.5	-1.6	35
Cc1cc(=O)cc(C)n1-c1ccccc1Br	5%	-0.2%	8%	-0.5	-0.7	1
Cc1cc(Br)cc2c1NC(=O)C2(O)CC(=O)c1ccco1 (stereo not drawn)	-28%	2.1%	10%	-0.3	0.5	4
Cc1cc(CNC(=S)Nc2cccc(Cl)c2Cl)nn1C	-18%	-2.9%	-2%	1.6	-1.1	6
COc1ccc(N2CC(NC(=O)C(c3ccccc3)c3ccccc3)CC2=O)cc1OC (stereo not drawn)	.	-0.9%	.	-0.3	.	-1
O=C(NCc1ccccc1)NC(=O)c1ccccc1	-22%	-1.2%	6%	0.4	-0.6	-6
O=C(NCC(=O)N1CCN(c2ccccc2)CC1)c1ccc(Cl)cc1	-3%	-0.9%	3%	0.1	2.9	-54*
Cc1ccc(SCC(=O)Nc2ccc3oc(-c4ccc(F)cc4)nc3c2)cc1	.	3.5µM*	.	0.8	.	-20
O=C(COc1coc(CN2CCN(c3ccccc3)CC2)cc1=O)N1CCc2ccccc21	17%	28µM*	9%	1.1	.	6
CCOC(=O)C1=C(CC)Nc2ccccc2N/C1=N\S(=O)(=O)c1ccccc1OC	-35%[inhibitor]	-4.2%	?	0.8	.	-2
CS(=O)(=O)Cc1cc(N2CCCC2)nc(-c2ccccc2)n1	3%[15.4 µM]	.	-7%	-0.7	2.8	-12

Record cards, as listed above:
O=C(NCC(=O)N1CCN(c2ccccc2)CC1)c1ccc(Cl)cc1 is listed with gsp agonist = -3%; ClpP mod = -0.9%; gsp antagonist = 3%; TRPML1 agonist = 0.1; Menin MLL FP FL = 2.9; TRPML1 inh = -54*
COc1ccc(-c2cc(=O)oc3cc(OCC(=O)N[C@@H](Cc4c[nH]c5ccccc45)C(=O)O)ccc23)cc1 is listed with gsp agonist = .; ClpP mod = -1.1%; gsp antagonist = -5%; TRPML1 agonist = .; Menin MLL FP FL = -3.9; TRPML1 inh = .
Cc1ccc(-c2ccc3c(c2)O[C@H](CN(C)C(=O)Nc2ccc(C(F)(F)F)cc2)[C@H](C)CN([C@H](C)CO)S3(=O)=O)cc1 is listed with gsp agonist = .; ClpP mod = -0.6%; gsp antagonist = .; TRPML1 agonist = 0.3; Menin MLL FP FL = .; TRPML1 inh = -19

Following part.
SMILES	gsp agonist	ClpP mod	gsp antagonist	TRPML1 agonist	Menin MLL FP FL	TRPML1 inh
O=C(CNS(=O)(=O)c1ccc(F)cc1)N1CCOCC1	-11%	.	13%	1.3	0.5	-5
CCN(CC)c1ccc(CN(C(=O)c2cccs2)C2CCS(=O)(=O)C2)cc1 (stereo not drawn)	1%	1.2%	-6%	-1.5	.	14
COC(=O)C1(C#N)C(c2ccccc2)C1(C(=O)OC)C(=O)OC (stereo not drawn)	0%	0.2%	-5%	0.4	4.4	12
Cc1ccc(CSCC(=O)N(C)CC(=O)Nc2ccc(Cl)c(Cl)c2)cc1	-16%	1.2%	-12%	1.2	.	44
COc1ccccc1NC(=S)N(Cc1ccco1)Cc1cc2ccc(C)c(C)c2[nH]c1=O	17%[15.4 µM]	-12%	0%	-0.3	5.7	-1
COC(=O)c1ccc(NC(=O)CCn2cccn2)cc1	.	-0.1%	.	0.4	.	27
CCOP(=O)(c1ccc(N(C)C)cc1)C(O)c1ccccc1F (stereo not drawn)	?	.	6%	0.1	-0.7	10
COc1ccc(N2C(=O)c3ccccc3NC2c2ccc(OC)c(CN3CCOCC3)c2)cc1 (stereo not drawn)	6%	?	-9%	0.3	-0.4	20
CC(C)NC(=O)[C@H]1N2C(=O)c3ccccc3C2SC1(C)C (stereo partly drawn)	-1%[15.4 µM]	0.5%	-4%	-1.1	-12	17
CCCN1Cc2cccc(C(=O)NCCCOC(C)C)c2C1=O	14%	-2.0%	7%	0.6	0.6	9
Cc1onc(-c2c(Cl)cccc2Cl)c1NC(=O)NNc1c(Cl)cncc1Cl	-34%[inhibitor]	2.0%	-9%	0.9	-0.3	21
O=C(Nc1cccc(S(=O)(=O)N2CCOCC2)c1)c1cn(-c2ccccc2)nc1-c1ccccc1	-11%	.	2%	0.0	3.8	-4
CC1(C)C(=O)Nc2ccccc2N1C(=O)CN1C(=O)c2ccccc2C1=O	2%	1.3%	-13%	-0.9	-1.0	-9
CC1CCCN(S(=O)(=O)c2cccc(C(=O)NCCCN3CCCC3=O)c2)C1 (stereo not drawn)	-77%[inhibitor]	-3.4%	.	0.6	.	33
COc1ccc(NC(=O)CC2C(=O)N(c3ccc(OC)cc3)C(=O)N2CCC2=CCCCC2)cc1 (stereo not drawn)	.	1.1%	.	1.1	.	11
COC(=O)COc1ccc(Cl)cc1C1Nc2ccccc2C(=O)N1c1ccc(OC)cc1 (stereo not drawn)	-6%	-26%	-2%	-0.3	0.6	-5
Cc1c(C)n(CCC(=O)O)c2ccccc12	-19%	.	-4%	-0.5	-0.7	-8
OCCC1CN(Cc2ccccc2OC2CCCC2)CCN1Cc1ccsc1 (stereo not drawn)	-14%	-1.0%	6%	3.0	-0.8	45
CCc1nc2ccccc2c(C(=O)OCC(=O)NC2CCCC2)c1C	-13%	.	-4%	1.4	.	-5
Cc1ccccc1Nc1c(N)c(=O)oc2ccccc12	6%	-1.5%	-10%	1.9	1.0	13
